Assay outcomes deposited in PubChem by National Center for Advancing Translational Sciences (NCATS).
D2 ag: agonists of human D2 dopamine receptor (beta-arrestin). activation, % (concentration not given with the values). DiscoveRx PathHunter D2 beta-arrestin, luminescence, 90 min; 100% = 57 uM dopamine signal. P14416. actives 0.084% (n = 360,000); in the data active = activation above about 40%; inconclusive = about 15% to 40%; inactive = below about 15%; note: compound concentration not given in the record; the text of the record calls up to 30% inactive
Target sequence (P14416 whole entry, looked up): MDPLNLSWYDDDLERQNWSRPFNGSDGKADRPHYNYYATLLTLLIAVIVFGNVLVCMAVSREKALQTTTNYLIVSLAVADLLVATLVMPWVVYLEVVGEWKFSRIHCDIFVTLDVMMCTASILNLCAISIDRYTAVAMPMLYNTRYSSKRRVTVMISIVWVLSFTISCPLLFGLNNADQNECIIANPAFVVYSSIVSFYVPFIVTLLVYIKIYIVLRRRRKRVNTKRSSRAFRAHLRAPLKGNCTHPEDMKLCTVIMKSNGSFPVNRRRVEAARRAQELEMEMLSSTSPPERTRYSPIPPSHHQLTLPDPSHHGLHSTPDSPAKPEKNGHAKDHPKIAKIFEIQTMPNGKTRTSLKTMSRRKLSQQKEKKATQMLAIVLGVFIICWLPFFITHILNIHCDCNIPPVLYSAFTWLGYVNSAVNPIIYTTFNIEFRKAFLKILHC
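Agonist mode: compounds alone added to overnight-plated D2 PathHunter cells for 90 min at 37 C, with 57 uM final dopamine (EC100) defining full response. Beta-arrestin recruitment detected by chemiluminescent reagent, read after 1 h at ambient temperature.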
PINK1 expr mod: changes PINK1 expression; PINK1 immunofluorescence, high-content cytometry, 24 h; Potency, µM (top dose mostly 76.6 µM), for the others: at the top dose activation (PINK1 increase), actives largely listed as activators; actives 0.2% (n = 410,000); AID 624263; active = well fitted activation curve with a large enough effect; inconclusive = small, poorly fitted or top-dose-only effect; inactive = flat fitted curve, though single readings scatter; cell line not stated here;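 note: potency is the fitted concentration of half-maximal effect; % of control where 0% means no effect; nearly all actives have a fitted effect of over 65% in size; a mitochondrial uncoupler was the plate control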
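Measures PINK1 amount and localization on or inside mitochondria by immunofluorescence. Stable cells get compounds at 5 concentrations for 24 hours before fixation and staining; CCCP controls included.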
TRPML1 agonist: activates the human TRPML1 channel; Q9GZU1; TRPML1-expressing cells, Ca2+ dye fluorescence, FDSS; host cell line not named in the record; reference of the full effect not given here; activation, % (concentration not given with the values); actives 0.12% (n = 410,000); in the data active = activation above about 50%; inconclusive = about 30% to 50%; inactive = below about 30%; note: 0% is about no effect; the text of the record puts the active cut at 80%
Target sequence (Q9GZU1 whole entry, looked up): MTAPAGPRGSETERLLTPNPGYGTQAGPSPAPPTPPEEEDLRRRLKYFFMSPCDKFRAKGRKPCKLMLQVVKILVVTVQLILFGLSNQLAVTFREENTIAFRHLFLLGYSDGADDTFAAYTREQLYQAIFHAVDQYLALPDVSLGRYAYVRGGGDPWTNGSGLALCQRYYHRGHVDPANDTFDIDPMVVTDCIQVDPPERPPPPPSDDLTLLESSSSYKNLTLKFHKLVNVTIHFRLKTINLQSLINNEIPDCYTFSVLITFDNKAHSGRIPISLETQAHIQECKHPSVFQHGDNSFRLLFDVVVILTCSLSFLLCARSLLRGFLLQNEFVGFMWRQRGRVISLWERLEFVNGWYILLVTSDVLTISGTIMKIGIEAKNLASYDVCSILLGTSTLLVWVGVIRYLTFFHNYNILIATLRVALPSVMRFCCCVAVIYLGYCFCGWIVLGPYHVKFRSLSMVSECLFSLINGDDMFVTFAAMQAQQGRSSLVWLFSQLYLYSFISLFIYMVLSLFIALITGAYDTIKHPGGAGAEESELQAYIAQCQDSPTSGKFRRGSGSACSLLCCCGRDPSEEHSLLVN
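In this qHTS format, compounds were pin-transferred onto Ca8-dye-loaded TRPML1-DL cells induced with Tet overnight, and intracellular Ca2+ fluorescence was recorded kinetically for 110 s after a 10 s baseline. A subsequent 4uM final 54-4 (EC80) addition followed by a second 110 s read served as the antagonist phase.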
CtBP-E1A inh: CtBP/E1A binding inhibition. AlphaScreen GST-E1A/His-CtBP binding, 1536-well; active compounds read low; control for the full effect not named in the record. activity change, % (no concentration beside the values). actives 0.49% (n = 340,000). AID 651724; in the data active means activity change below about -65%; inconclusive means about -30% to -65%; inactive means above about -30%; note: % is set by controls: 0 for no effect and ±100 for the full control effect
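AlphaScreen with 125 nM GST-E1A and 125 nM His-CtBP (5X stocks) in Tris pH 8.0, 300 mM NaCl, BSA, Tween 20, TCEP. Compounds preincubated 2 h at 37 deg C, then glutathione donor/nickel acceptor beads added for 1 h at 37 deg C in dark.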
TRPML1 blocker: inhibitors of human TRPML1 channel. actives 0.02% (n = 390,000). Q9GZU1. activity change, negative = inhibition, % (test concentration not listed). AID 624415. TRPML1-inducible cells, Ca2+ dye fluorescence, FDSS; active compounds read low; inhibition of EC80 agonist-evoked calcium signal; in the data active means activity change below about -50%; inconclusive means about -30% to -50%; inactive means above about -30%;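 note: stimulus is agonist 54-4 at its EC80 concentration; % is set by controls: 0 for no effect and ±100 for the full control effect; compound concentration not given in the record; the text of the record puts the active cut at -80%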
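TRPML1-DL cells, Tet-induced overnight (~16 h, 37 °C) at 1,500 cells/well, were loaded with Ca8 no-wash dye plus quencher for 45-90 min at room temperature. Compounds were pinned during FDSS kinetic reading; agonist 54-4 at EC80 (4 uM final) then added.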
Six1-Eya2 blk: inhibitors of human Six1/Eya2 interaction; Q15475+O00167; AlphaScreen GST-Six1/His-Eya2 binding, biochemical; active compounds read low; control for the full effect not named in the record; activity change, % (test concentration not listed); actives 0.56% (n = 360,000); in the data active = activity change below about -65%; inconclusive = about -30% to -65%; inactive = above about -30%; note: % is set by controls: 0 for no effect and ±100 for the full control effect
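Compounds are tested against tagged Six1 and Eya2 proteins bridged by glutathione donor and nickel acceptor beads; after a one-hour incubation at 37 °C without light, AlphaScreen emission is recorded.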
Active calls of the source: *; u = inconclusive; x = no result given; & = joins results of further samples; [ ] = another dose, or the depositor's remark.

Below each compound – D2 ag, PINK1 expr mod, TRPML1 agonist, CtBP-E1A inh, TRPML1 blocker, Six1-Eya2 blk
COc1ccc(N2CC(NC(=O)C(=O)c3c[nH]c4ccccc34)CC2=O)cc1 (stereo unspecified)
    x, -0.5%, 1.3, x, 0.5, x
CCOCCCNC(=O)CCc1nnc2n(CCC(C)C)c(=O)c3ccccc3n12
    2.0, 2.0%, 0.3, 5.0, -0.3, -2.4
COc1cc(NS(=O)(=O)c2ccc3[nH]c(=O)oc3c2)cc(OC)c1
    -2.5, 1.6%, -0.7, -0.6, 12.3, 10.5
O=C(OCc1cc(=O)n2c(n1)sc1ccccc12)c1cccc(O)c1
    1.3, 1.5%, 3.0, -18.9, -6.6, -18.7
CCOc1ccccc1OCCCNCc1ccco1
    -4.0, -2.1%, -0.1, 2.7, -2.6, 6.1
O=C(NC1CCCC1)C(c1ccccn1)N(C(=O)c1csnn1)c1ccccc1Cl (stereo unspecified)
    0.3, -0.8%, 1.3, 2.0, -15.4, 2.8
CN(CC(=O)Nc1cccc(F)c1)C(=O)c1cccc(S(=O)(=O)N2CCN(c3ccccc3)CC2)c1
    -1.2, 0.1%, -0.4, -1.2, -26.4, -7.8
CC(C)NC(=O)COC(=O)c1ccccc1Oc1ccccc1
    -0.3, -0.5%, -0.4, 7.7, 10.4, -0.7
COCCNC(=O)c1ccc2c(c1)S(=O)(=O)c1ccccc1C2=O
    6.3, -0.6%, -0.8, 5.6, 4.3, -4.5
COc1ccc(NC(=O)CC2C(=O)NCCN2C(=O)c2ccc(Cl)cc2)cc1 (stereo unspecified)
    -2.7, -0.1%, 3.8, 8.0, 9.9, 2.6
Cc1ccc(S(=O)(=O)NCc2cn3c(C)csc3n2)cc1
    0.0, 1.7%, -1.3, -1.3, -0.9, -2.9
CCOC(=O)N1CCN(Cc2nc(N)nc(Nc3ccccc3C)n2)CC1
    -2.2, 8.1%[38.3 µM], 0.2, -0.2, 5.6, -1.7
Cc1ccc(NC(=O)CCCCCN2C(=O)[C@@H]3Cc4ccccc4CN3C2=O)c(C)c1
    -1.9, -1.3%, -0.3, 2.4, -14.4, 14.5
COc1ccc(N(C(=O)Cc2cccs2)C(C(=O)NC2CCCC2)c2ccncc2)cc1 (stereo unspecified)
    -0.2, 1.2%, -0.5, -11.1, 21.1, -0.8
CCN(CC)c1ccc(NC(=O)c2cc3c(=O)n4cccc(C)c4nc3n2C)c(C)c1
    x, 1.9%, -0.3, x, -1.9, x
OC1C2(Cc3ccccc3)CN3CCN(C2)CC1(Cc1ccccc1)C3 (stereo unspecified)
    -1.2, -0.6%, 0.0, -3.4, -6.4, -2.3
O=c1c2ccccc2ncn1CCCOc1ccccc1[N+](=O)[O-]
    0.9, 2.1%[38.3 µM], -0.8, 2.7, 7.2, -1.4
OCCC1CN(Cc2nc(-c3ccccc3)cs2)CCN1C1CCCC1 (stereo unspecified)
    -2.1, 0.2%, -0.5, x, -12.6, 6.9
CCOc1ccc(NS(=O)(=O)c2ccc(NC(=O)c3ccccc3C(=O)O)cc2)cc1
    -2.7, -0.1%, -0.3, 9.6, -9.8, 11.5
CCOC(=O)c1c(N2C(=O)C3C4C=CC(C4)C3C2=O)sc2c1CCC(C)C2 (stereo unspecified)
    -2.5, -1.0%, 0.2, -1.1, 9.8, 10.5
N#CC1=C(N)SC(N)=C(C#N)C1CCc1ccccc1
    0.3, 1.4%, 11.5, -18.9, -5.0, -8.8
CC(C)(CN1CCCC1)NC(=O)C1CCC(=O)N(CCCN2CCOCC2)C1 (stereo unspecified)
    -2.1, -0.8%, -0.2, 2.6, -8.7, 3.1
O=C(CCCOc1ccc(Cl)cc1Cl)NNC(=O)c1ccc(NC(=O)c2ccccc2)cc1
    1.9, 1.8%, 0.3, 11.1, 16.1, 11.0
CC1CCCN(C(c2ccccc2)c2sc3ncnn3c2O)C1 (stereo unspecified)
    -4.2, -1.7%, 0.2, -26.3, 3.0, 0.1
CCOc1ccc(-c2ncncc2-c2ccccc2OC)c(O)c1
    -0.1, 1.0%, 1.3, 0.0, 3.9, 11.9
COc1ccc(NC(=O)CC2COc3ccccc3O2)c(OC)c1 (stereo unspecified)
    0.9, 1.1%, 0.4, -0.3, 18.5, -4.8
CC(=O)Nc1ccc(C(=O)Nc2ccc(S(=O)(=O)N3CCCC3)cc2)cc1
    0.5, 1.5%, -0.4, -1.8, 16.7, -1.1
O=C(CSc1nnc(-c2cccs2)n1C1CC1)NC1CCS(=O)(=O)C1 (stereo unspecified)
    3.0, -0.7%, -0.2, 10.1, 3.3, -0.5
CCOc1ccc(NC(=O)CSc2nc(-c3ccc(OC)cc3)nc3c2Cc2c(CO)cnc(C)c2O3)cc1
    x, 4.0%, -0.4, x, 3.5, x
COc1cccc(C(=O)CSc2nnc(CNS(C)(=O)=O)n2-c2ccc(C)cc2)c1
    -6.8, -4.2%, -0.4, 9.7, 3.9, -2.7
O=C(CSCCO)N1CCc2ccccc21
    -1.3, 0.4%, -0.8, 4.8, 17.1, -1.4
COc1ccc(N2CCN(C(=O)CCSCc3ccccc3F)CC2)cc1
    -4.5, -0.1%, 1.1, -11.2, -2.4, -29.9
Cn1nc(OC(=O)Nc2ccc(F)cc2)cc1C(F)(F)F
    -1.3, 0.4%, -0.2, 1.9, 1.7, -1.5
O=C(NCCNC(=O)c1ccccc1Cl)c1ccco1
    -2.1, 0.3%, -0.6, 13.2, 0.4, 0.5
Cc1ccc(C(=O)NNC(=O)c2ccc(NC(=O)C(C)(C)C)cc2)cc1
    1.0, 2.2%, 0.1, 6.9, 1.0, 4.8
O=C(NC1CCCCCC1)c1cccs1
    0.8, u, 0.5, 1.1, -4.5, -1.0
COCCCn1cc(C(=O)c2cc(Br)ccc2O)cc(C#N)c1=O
    0.0, 4.9%, -0.4, -19.2, -12.2, -14.5
C/C(=N\NC(=O)c1nc(C)cc(C)n1)c1ccccc1
    -0.9, -0.8%, 1.7, 3.8, 13.6, -0.7
COC(=O)C1CN(C(=O)C(C)Oc2ccccc2Cl)c2ccccc2O1 (stereo unspecified)
    0.9, -1.0%, 1.3, 0.4, 21.1, 8.4
COc1ccccc1Cn1c(=S)[nH]c2cc(C(=O)N3CCC(C(N)=O)CC3)ccc2c1=O
    -0.7, 0.3%, -0.7, 1.4, -1.0, 8.6
CCc1nnc(SC(CC)C(=O)NCCOC)c2cc3occc3n12 (stereo unspecified)
    x, -2.6%, 0.4, x, 8.8, x
CCOC(=O)C(NC(C)=O)C(=O)O (stereo unspecified)
    -2.3, -1.0%, -0.8, 8.8, 4.5, -2.3
CCOC(=O)C1=C(O)C(=O)N(Cc2cccnc2)C1c1ccc(C)cc1 (stereo unspecified)
    -1.6, 0.1%, 2.1, 5.9, 13.5, -5.7
Cc1ccc(OC(C)C(=O)Nc2ccc(S(=O)(=O)Nc3cc(C)on3)cc2)cc1 (stereo unspecified)
    -2.5, 5.5%[38.3 µM], 2.5, 3.9, -0.3, 1.2
Cc1cccc(C(O)c2cnc(C)n2Cc2ccccc2)c1 (stereo unspecified)
    -3.1, 0.1%, 0.1, -25.8, 17.2, 0.2
Cc1ccccc1CNCc1c(C(=O)O)c(C)n(Cc2ccc(F)cc2Cl)c1C
    x, 0.3%, 2.2, x, -0.9, x
COc1ccccc1NC(=O)CSc1oc(-c2ccccc2)nc1S(=O)(=O)c1ccccc1
    x, 2.4%, 0.6, x, 50.4, x
COc1ccc(C)cc1NC(=O)C(OC(=O)CNC(=O)c1cccc(F)c1)c1ccccc1 (stereo unspecified)
    -0.2, -0.7%, 6.0, -17.1, 1.2, -6.6
CCN(c1cccc(C)c1)S(=O)(=O)c1ccc(-n2cccn2)cc1
    -2.6, 1.0%&4.1%, -0.4&1.4, 4.7, -4.1&24.0, 3.8
CCOc1ccc(CNC(=O)CN2C(=O)CSc3c2c(C)nn3-c2ccccc2)cc1
    x, 7.3%, 0.1, x, 26.1, x
C=CCNc1ncnc2ccccc12
    8.0, 25.0%[38.3 µM], 0.1, 0.4, 1.3, 2.6
c1ccc(CN2CCN(Cc3cn4cccnc4n3)CC2)cc1
    2.6, 1.7%, 0.5, 2.6, -11.5, 10.0
COc1ccc(N(C2=NCCCS2)S(=O)(=O)c2ccc(C(C)(C)C)cc2)cc1
    -4.9, 3.6%, 0.4, 0.0, 3.2, -4.2
COc1cc([N+](=O)[O-])ccc1NC(=O)NCc1ccccn1
    -3.4, -1.0%, -0.3, -8.8, -5.3, -2.9
COc1ccccc1/C=C/C=N/n1c(-c2ccc(Cl)cc2Cl)n[nH]c1=S
    -9.7, 1.9%, 4.5, -1.6, 26.2, -8.5
O=C(Nc1ccc(N2CCCCC2)cc1)c1ccc2ccccc2n1
    -8.7, 5.7%, 87.2*, -26.9, u, u
CCN(CC(=O)Nc1c(F)cccc1F)C(=O)c1ccc2c(=O)n3c(nc2c1)CCC3
    -4.1, 3.0%, -0.4, -2.0, 8.2, -2.1
CCN(CC1CCCO1)C(=O)CCc1nnc(Cc2ccc3c(c2)OCO3)o1 (stereo unspecified)
    1.7, -0.5%, 1.0, -23.2, -23.7, 3.3
CC(=O)C1=C(C)NC(=O)NC1c1cccs1 (stereo unspecified)
    -2.2, 1.9%[38.3 µM], 0.5, -3.2, 3.3, 0.0
Cc1cccc(C(=O)OCC(=O)NC23CC4CC(CC(C4)C2)C3)c1O
    0.2, 11.7%, 2.1, -1.7, 30.9, 5.3

Remaining list, next part.
Below each compound – D2 ag, PINK1 expr mod, TRPML1 agonist, CtBP-E1A inh, TRPML1 blocker, Six1-Eya2 blk
Cc1cccc(NC(=O)CN2C(=O)N/C(=C/c3cc(C)n(C)c3C)C2=O)c1
    -3.3, -1.5%, 0.0, -2.4, 9.2, 0.1
Cc1ccc2nc(NC(=O)c3ccco3)sc2c1
    -1.7, 1.2%, 2.1, 23.7, 7.8, 0.0
Cc1ccc(N(C(C)C(=O)N2CCOCC2)S(C)(=O)=O)cc1C (stereo unspecified)
    2.8, -0.8%, -0.4, -20.6, -12.9, 2.9
COc1cc(C=O)ccc1OCC(=O)N1CCOCC1
    -2.6, -1.0%, 1.0, 4.0, -8.2, 1.1
Cc1ccc(NS(=O)(=O)c2cccc(C(=O)NCC(c3ccco3)N3CCCCC3)c2)cc1 (stereo unspecified)
    -6.0, -2.4%, 1.0, -5.7, 9.2, -5.9
CC1=Nc2cc([N+](=O)[O-])ccc2NC(C)(C)C1
    -4.2, 1.6%, -0.4, -20.3, 10.8, -25.7

Among those listed so far, these have a nitro group on carbon:
Below each compound – D2 ag, PINK1 expr mod, TRPML1 agonist, CtBP-E1A inh, TRPML1 blocker, Six1-Eya2 blk
O=c1c2ccccc2ncn1CCCOc1ccccc1[N+](=O)[O-]
    0.9, 2.1%[38.3 µM], -0.8, 2.7, 7.2, -1.4
COc1cc([N+](=O)[O-])ccc1NC(=O)NCc1ccccn1
    -3.4, -1.0%, -0.3, -8.8, -5.3, -2.9
CC1=Nc2cc([N+](=O)[O-])ccc2NC(C)(C)C1
    -4.2, 1.6%, -0.4, -20.3, 10.8, -25.7
